PINK1 expr mod = modulators of PINK1 expression; AID 624263; Potency, µM (series often up to 76.6 µM), without a hit: at the top dose activation (PINK1 increase), usual class: activators; PINK1 immunofluorescence, high-content cytometry, 24 h; 0.2% of 410,000 active; active = well fitted activation curve with a large enough effect; inconclusive = small, poorly fitted or top-dose-only effect; inactive = flat fitted curve, though single readings scatter; cell line not stated here;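 further: potency means the concentration at half of the fitted maximal effect; % of control where 0% means no effect; nearly all actives have a fitted effect of over 65% in size; a mitochondrial uncoupler was the plate control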
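A stable cell line was treated with compounds at 5 concentrations for 24 hours, with CCCP as control. PINK1 levels and mitochondrial localization were measured by immunofluorescence with mitochondrial, cell and nuclear markers after fixation, read by laser-scanning cytometry.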
TRPML1 ag = activates the human TRPML1 channel; Q9GZU1; TRPML1-expressing cells, Ca2+ dye fluorescence, FDSS; host cell line not named in the record; reference of the full effect not given here; activation, % (no concentration beside the values); 0.12% of 410,000 active; AID 624414; in the data active = activation above about 50%; inconclusive = about 30% to 50%; inactive = below about 30%; further: 0% is about no effect; the text of the record puts the active cut at 80%
Target sequence (Q9GZU1 whole entry, looked up): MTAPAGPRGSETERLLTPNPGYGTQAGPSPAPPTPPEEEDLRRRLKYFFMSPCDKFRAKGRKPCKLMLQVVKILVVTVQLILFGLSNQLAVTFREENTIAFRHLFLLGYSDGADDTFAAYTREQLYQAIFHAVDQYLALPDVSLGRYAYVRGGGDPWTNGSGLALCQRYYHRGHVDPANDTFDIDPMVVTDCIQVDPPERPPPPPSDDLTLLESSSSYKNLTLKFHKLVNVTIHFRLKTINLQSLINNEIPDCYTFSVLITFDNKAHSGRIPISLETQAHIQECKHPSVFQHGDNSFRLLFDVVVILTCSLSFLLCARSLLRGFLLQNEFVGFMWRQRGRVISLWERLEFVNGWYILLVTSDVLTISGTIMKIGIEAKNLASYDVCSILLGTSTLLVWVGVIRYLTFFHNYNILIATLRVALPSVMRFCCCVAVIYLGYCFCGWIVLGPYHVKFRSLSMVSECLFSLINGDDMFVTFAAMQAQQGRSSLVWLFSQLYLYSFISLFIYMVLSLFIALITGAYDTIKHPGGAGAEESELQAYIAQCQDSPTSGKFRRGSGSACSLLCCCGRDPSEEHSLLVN
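TRPML1-DL cells, Tet-induced overnight (~16 h, 37 degrees C), loaded 45-90 min at room temperature with Ca8 no-wash calcium dye plus quencher. FDSS fluorescence: 10 s baseline, compound pin-transfer, 110 s agonist read, then EC80 54-4 (4uM final) and 110 s antagonist read.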
CtBP-E1A inh = CtBP/E1A binding inhibition. activity change, % (no concentration beside the values). AlphaScreen GST-E1A/His-CtBP binding, 1536-well; active compounds read low; control for the full effect not named in the record. AID 651724. 0.49% of 340,000 active; in the data active means activity change below about -65%; inconclusive means about -30% to -65%; inactive means above about -30%; further: on the % scale 0 is the no-effect control and ±100 the full control effect
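Homogeneous bead-based format: GST-tagged E1A captured on glutathione donor beads, His-tagged CtBP on nickel acceptor beads; compounds precede bead addition by 2 h at 37 °C.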
TRPML1 inh = blocks the human TRPML1 channel; Q9GZU1; TRPML1-inducible cells, Ca2+ dye fluorescence, FDSS; active compounds read low; inhibition of EC80 agonist-evoked calcium signal; activity change, negative = inhibition, % (concentration not given with the values); 0.02% of 390,000 active; in the data active means activity change below about -50%; inconclusive means about -30% to -50%; inactive means above about -30%;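 further: stimulus is agonist 54-4 at its EC80 concentration; on the % scale 0 is the no-effect control and ±100 the full control effect; the text of the record puts the active cut at -80%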
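Tet-induced TRPML1-DL cells loaded with Ca8 no-wash calcium dye were read kinetically on FDSS. Compound addition was followed by EC80 agonist 54-4 (4 uM final); inhibition was read over 110 s.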
Six1-Eya2 blk = Six1/Eya2 interaction inhibition; AlphaScreen GST-Six1/His-Eya2 binding, biochemical; active compounds read low; control for the full effect not named in the record; activity change, % (test concentration not listed); 0.56% of 360,000 active; AID 651725; in the data active = activity change below about -65%; inconclusive = about -30% to -65%; inactive = above about -30%; further: on the % scale 0 is the no-effect control and ±100 the full control effect
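Compounds are tested against tagged Six1 and Eya2 proteins bridged by glutathione donor and nickel acceptor beads; after a one-hour incubation at 37 °C without light, AlphaScreen emission is recorded.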
D2 agonist = human D2 receptor agonism in beta-arrestin assay. P14416. 0.084% of 360,000 active. DiscoveRx PathHunter D2 beta-arrestin, luminescence, 90 min; 100% = 57 uM dopamine signal. activation, % (test concentration not listed); in the data active = activation above about 40%; inconclusive = about 15% to 40%; inactive = below about 15%; further: compound concentration not given in the record; the text of the record calls up to 30% inactive
Target sequence (P14416 whole entry, looked up): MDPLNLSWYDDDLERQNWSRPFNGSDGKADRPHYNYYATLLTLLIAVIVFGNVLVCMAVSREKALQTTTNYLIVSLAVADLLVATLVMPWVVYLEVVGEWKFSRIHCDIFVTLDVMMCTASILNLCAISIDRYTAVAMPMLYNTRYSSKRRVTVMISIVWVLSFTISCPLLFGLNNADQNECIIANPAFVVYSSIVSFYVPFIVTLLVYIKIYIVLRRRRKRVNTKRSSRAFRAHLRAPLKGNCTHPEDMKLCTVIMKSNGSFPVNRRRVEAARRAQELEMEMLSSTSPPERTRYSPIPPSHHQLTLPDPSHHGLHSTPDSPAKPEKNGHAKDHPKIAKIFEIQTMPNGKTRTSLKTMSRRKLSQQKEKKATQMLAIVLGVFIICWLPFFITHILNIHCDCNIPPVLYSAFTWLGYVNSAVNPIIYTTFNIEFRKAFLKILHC
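Agonist mode: compounds alone added to overnight-plated D2 PathHunter cells for 90 min at 37 C, with 57 uM final dopamine (EC100) defining full response. Beta-arrestin recruitment detected by chemiluminescent reagent, read after 1 h at ambient temperature.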
* marks the source's active call; other numbers are inactive results; ? = inconclusive; · = not tested or not shown; & = joins results of further samples; [ ] = dose if it differs, or a comment.

SMILES	PINK1 expr mod	TRPML1 ag	CtBP-E1A inh	TRPML1 inh	Six1-Eya2 blk	D2 agonist
COc1ccc(-c2ccnc(-c3ccc(O)cc3)n2)cc1	0.1%	1.3	-16.0	-13.8	-12.1	4.3
Cc1nn(C)c(C(=O)NC(=S)Nc2ccccc2Br)c1Cl	2.6%	0.6	5.9	35.5	12.5	-9.3
O=c1c(N2CCN(c3cccc(C(F)(F)F)c3)CC2)csc2ccc(Cl)cc12	0.3%	-0.5	·	-9.5	·	·
CCc1cccc(C)c1NS(=O)(=O)c1ccc(-c2cc(C)no2)s1	2.8%	1.2	·	-10.3	·	·
OC(COc1ccc2c(c1)OCO2)CN1CCc2ccccc2C1 (stereo not drawn)	·	-0.1	6.6	-1.4	-10.9	0.1
CC(=O)c1ccc(-c2ccccc2OC(F)(F)F)o1	0.8%	-1.0	·	-2.9	9.0	-4.7
CC(C)Cc1nnc(NC(=O)c2ccncc2)s1	-1.1%	-0.9	-1.8	17.1	10.6	2.4
CCc1cccc(C)c1NC(=O)CN1CCCN(Cc2ccccc2Cl)S1(=O)=O	-0.7%	-0.2	·	-20.1	·	·
CCc1nccn1CCC(=O)N1CCCC(N2CCN(c3ccccc3C)CC2)C1 (stereo not drawn)	1.9%	0.1	-2.8	-9.9	7.9	-0.7
CCc1ccc(NC(=O)CN2C(=O)C3CCCN3c3ccc(S(=O)(=O)N(CC)CC)cc32)cc1 (stereo not drawn)	-1.6%	1.3	·	-11.3	·	·
CCCS(=O)(=O)C(=C(Nc1ccccc1)Nc1ccccc1)S(=O)(=O)CCC	·	-0.1	-11.8	7.0	-3.1	-2.5
CC1(C)CC(=O)C=C(c2ccccc2-c2ccc3cc[nH]c3c2)C1=O	0.5%	·	-7.2	·	-11.5	-0.5
CCN(CC)CC(=O)NN(Cc1ccccc1)c1ccccc1	-1.3%	-0.6	5.3	32.8	5.5	-1.3
CCOC(=O)c1cccc(NC(=O)Cc2ccc(NC(=O)N3CCCCc4ccccc43)cc2)c1	0.2%	0.4	·	-10.7	·	·
CCCC(=O)N(c1ccc(OCC)cc1)C1C=CS(=O)(=O)C1 (stereo not drawn)	1.3%[38.3 µM]	1.0	-1.0	-9.8	5.8	-2.1
COc1cc(/C=C2\Oc3ccc(C#Cc4ccc(O)cc4)cc3C2=O)cc(OC)c1	1.7%	-0.1	-15.3	4.0	-13.5	-0.3
Cc1cc2ccc3ccccc3c2cc1CN(C)C	3.4%	0.9	-8.0	42.1	-8.6	1.5
COC(=O)c1ccsc1NC(=O)CN1C(=O)CCC1=O	2.3%	-0.3	1.0	-10.3	7.0	-3.0
O=C(C1CCCN(Cc2cccnc2)C1)N1CCCCC1 (stereo not drawn)	-2.1%	-0.6	6.1	-21.5	6.2	3.5
CCCn1c(NC(=O)c2ccccc2Br)nc2ccccc21	1.4%	0.7	5.8	-2.0	-3.8	-3.4

Copied from the list.
For PINK1 expr mod, CCOC(=O)c1cccc(NC(=O)Cc2ccc(NC(=O)N3CCCCc4ccccc43)cc2)c1 is listed with 0.2%
For PINK1 expr mod, CCc1cccc(C)c1NC(=O)CN1CCCN(Cc2ccccc2Cl)S1(=O)=O is listed with -0.7%

More results:
SMILES	PINK1 expr mod	TRPML1 ag	CtBP-E1A inh	TRPML1 inh	Six1-Eya2 blk	D2 agonist
COc1cccc(N2C(=O)CSC23C(=O)N(Cc2ccccc2)c2ccccc23)c1 (stereo not drawn)	-1.6%	2.9	·	-4.5	·	·
CC1(c2ccc(Cl)c(Cl)c2)NC(=S)N2C1NC(=S)N2c1ccccc1 (stereo not drawn)	-0.4%	1.3	-9.4	-1.1	-13.5	5.4
CCOC(=O)[C@]12CCCC=C1N(Cc1cccc3ccccc13)C(=O)[C@H](CC(=O)NCCCOC)C2	-0.3%	-1.1	2.4	·	0.5	·
COc1ccc(S(=O)(=O)N2CCC(C(=O)N3CCCCC3)CC2)cc1OC	3.4%	-0.2	-0.1	1.6	-4.1	-0.3
O=C(Nc1c(Cl)cccc1Cl)C1CCN(C(=O)c2cccs2)CC1	2.2%	0.2	9.1	7.9	-2.5	-5.6
c1ccc2c(c1)nc(Nc1ccc3c(c1)OCO3)c1nnnn12	8.7%	-0.8	?	-6.7	?	2.9
Cc1ccc(N=Nc2ccc(N)cc2C)c(S(N)(=O)=O)c1	1.3%	-0.5	-15.4	-16.4	-22.8	-6.9
COc1ccc(-c2sc3cc4c(cc3c2C#CC2(N)CCCCC2)OCO4)cc1	-1.9%	0.8	0.7	2.2	-1.9	-3.4
c1ccc(CSc2ncn[nH]2)nc1	0.9%	0.1	-8.3	14.1	-11.0	-1.7
COc1ccc(NCC(=O)Nc2ccc(Br)cc2F)c(OC)c1	7.7%	0.5	?	-11.8	-16.5	-3.2
Cc1c(Br)c([N+](=O)[O-])nn1CC(=O)NCCc1c[nH]c2ccccc12	1.7%	-0.3	-3.2	-26.2	4.9	-4.6
O=C(Nc1cc([N+](=O)[O-])ccc1N1CCOCC1)c1ccco1	-0.2%	-1.3	10.0	-1.0	17.8	-2.6
CC(=O)/C(=N/Nc1ccc(Br)cc1)N1CCCc2ccccc21	8.4%	0.2	-18.8	-7.5	-24.5	-2.6
COc1ccccc1CNC(=O)C(=O)NCC(c1ccco1)N1CCOCC1 (stereo not drawn)	0.6%	·	10.5	·	1.0	0.7
COc1cccc(/C=C/C(=O)OCC(=O)c2ccc(S(=O)(=O)N3CCCCC3)cc2)c1OC	-3.5%	1.2	-4.1	17.7	0.0	-2.4
CCN(CC)c1nc(C(F)(F)F)nc2c1nnn2Cc1ccccc1	17.2%	1.1	·	10.7	0.2	-1.1
CCNC(=O)CSc1nnc(-c2cccs2)o1	4.7%	-0.1	1.3	-0.5	4.8	-1.9
CC(=O)c1cccc(-n2c(=O)c3c4c(sc3n(Cc3cccc(C)c3)c2=O)CN(C(C)=O)CC4)c1	1.7%	-0.6	·	1.9	·	·
O=C(CN1CCN(C(=O)c2ccccc2Cl)CC1)Nc1cccc(S(=O)(=O)N2CCCC2)c1	0.2%	-0.3	2.2	2.9	-1.4	9.3
CCCCNc1c(-c2cccc(SC(C)CC)c2)nc2ccc(Cl)cn12 (stereo not drawn)	?	-0.5&-0.2	18.0&10.7	-12.5	20.2&35.1	1.3
COc1cccc2c1OC1(C)CC2/C(=C(\C)O)C(=O)N1 (stereo not drawn)	5.3%[38.3 µM]	-0.2	11.1	-11.5	1.9	-0.7
Cc1nnc(SC(C)C(=O)Nc2ccc(Cl)cn2)n1Cc1ccccc1 (stereo not drawn)	-0.7%[38.3 µM]	0.1	76.8	4.2	-5.5	-0.6
O=C(NCCc1ccccc1)c1ncn[nH]1	?	0.2	9.8	2.0	5.5	0.8
CCCCC(=O)NCc1ccccc1Cl	-0.7%	0.3	-8.6	23.4	8.1	-4.2
COc1ccc(S(=O)(=O)Nc2c3ccccc3nc(=O)n2-c2ccccc2)cc1	2.4%	-0.5	-5.0	-12.7	0.8	1.2
COc1ccc(N/C(N)=N/c2nc(CSc3ccc(C)cc3)cc(=O)[nH]2)cc1	2.6%	3.9	1.9	9.2	-1.1	0.2
CCCC[C@@H]1CNC(=S)N1CC1CCCCC1	2.6%	1.8	-1.7	16.6	-2.5	1.8
COc1ccc(S(=O)(=O)N2CCN(C3CC4CCC3C4)CC2)cc1 (stereo not drawn)	1.4%	-1.2	0.0	10.7	-16.4	-2.5
CC(=O)c1sc(NC(=O)CCCOc2ccc(Cl)cc2)nc1C	4.3%	0.2	-7.9	-5.8	15.3	-1.1
Cc1cc(C)c2nc(N3CCC(C(=O)NCCCN4CCCCC4)CC3)sc2c1	-3.0%	0.1	-3.0	-6.3	-3.1	2.3
COc1cccc(-c2cnc3c(NC=O)cc(-c4cc(C)c(O)c(C)c4)cn23)c1	7.7%	-0.3	-28.4	·	-27.3	4.8
Cc1c(N(C)C)nc2ccccc2c1N	-1.2%	-0.6	-13.3	3.3	-4.2	-2.2
O=C(Cc1ccc(NC(=O)C2CCCN(C(=O)C3CC3)C2)cc1)Nc1ccc(C(=O)N2CCOCC2)cc1 (stereo not drawn)	-0.9%	2.4	-0.5	28.1	11.8	-0.1
NC1=NC[C@@H](Cc2ccc(O)cc2)N1CCc1cc(C(F)(F)F)cc(C(F)(F)F)c1	2.1%	0.1	0.0	-13.5	0.9	0.5
COc1ccc(CN2CCC(=O)N(CCO)CC2)cc1OC	1.2%	-0.8&-0.6	-0.6	15.7	0.3	-1.2
CC(C)OC(=O)c1cccc(NC(=O)c2ccccc2)c1	1.1%	1.5	8.9	9.1	7.0	6.8
CC(C)(C)CC(C)(C)N=C1Nc2ccccc2NC12C[C@H]1CCC(=O)N3CC[C@@H](C2)[C@@H]13 (stereo partly drawn)	3.1%	0.8&0.4	-1.1	9.7	-15.9	-0.4
CC(=O)c1sc(N/N=C\c2ccccc2O)nc1C	1.0%	9.6	?	19.1	?	-2.7
COCCNC(=S)Nc1ccc(N2CCCCC2)cc1	1.7%	0.3	-11.1	20.0	-2.6	-8.5
C/C(=N\Nc1nc2ccccc2s1)c1ccc(Br)s1	-0.1%	1.5	-7.1	36.4	-19.2	-0.3

Three compounds already listed, arranged by their value in CtBP-E1A inh, low to high.
| canonical_smiles | CtBP-E1A inh |
| --- | --- |
| Cc1c(N(C)C)nc2ccccc2c1N | -13.3 |
| COc1ccccc1CNC(=O)C(=O)NCC(c1ccco1)N1CCOCC1 (stereo not drawn) | 10.5 |
| COc1cccc2c1OC1(C)CC2/C(=C(\C)O)C(=O)N1 (stereo not drawn) | 11.1 |

Further entries
SMILES	PINK1 expr mod	TRPML1 ag	CtBP-E1A inh	TRPML1 inh	Six1-Eya2 blk	D2 agonist
CSc1nnc(-c2cccn(Cc3ccccc3)c2=O)o1	1.8%	0.8	9.4	-13.3	0.1	0.4
COc1cccc(N2C(=O)C(CC(=O)Nc3ccccc3)N(C3CCCCC3)C2=O)c1 (stereo not drawn)	-1.5%[38.3 µM]	-0.1	0.9	-4.0	3.4	-1.1
CCCCC(=O)Nc1c(C)cc(C)cc1Cl	-2.8%	3.1	-3.5	-6.4	-2.1	-0.8
C=C(C)Cn1c(CN(C)Cc2ccccc2)nc2c1c(=O)n(C)c(=O)n2C	-0.2%	-0.1	0.2	-12.1	1.7	-4.6
COc1ccc(NS(=O)(=O)c2ccc3c(c2)CCN3C(=O)CCC(=O)O)cc1OC	0.7%	-0.1	?	0.2	-3.3	2.7
CCc1cc2c(=O)c(-c3cnn(-c4ccccc4)c3)coc2c(CN2CCOCC2)c1O	2.7%	0.2	1.8	18.2	0.0	-2.0
COCCn1c(C)cc(C2=NNC(=Nc3ccc(Cl)cc3Cl)SC2)c1C	17.9%[38.3 µM]	0.3	-0.7	10.5	-3.2	0.9
CC(Cn1cncn1)C(=O)N1CCN(S(=O)(=O)c2ccc(Cl)cc2)CC1 (stereo not drawn)	3.0%	0.4	3.1	0.8	9.0	1.3
CCCCn1nnnc1NCc1ccc(OC)c(OC)c1OC	5.7%[38.3 µM]	0.6	5.8	-19.1	4.3	-3.0
